Screening data: PubChem BioAssay, several laboratories
YopH PTP inh = inhibitors of Yersinia enterocolitica YopH tyrosine phosphatase. inhibition, %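 (about 10 µM by stock and volumes)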. hit rate 0.16% among 140,000. fluorescence Ex485/Em525. AID 898;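 active = inhibition of 50% or more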;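 note: controls were vehicle for no effect and minimum signal wells for full effect; inactives centre near -20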
Arbovirus inh = blocks arbovirus infection | arbovirus infection cell-based antiviral screen | inhibition, % at 10 µM | hit rate 0.37% among 200,000;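 active = inhibition from about 30%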;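 note: bluetongue infection of BSR cells; cell survival read as ATP light after 72 h; 0% = infected wells without compound and 100% = uninfected wells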
Mtb bLac sens = beta-lactam sensitization of Mtb H37Rv; hit rate 0.27% among 330,000; inhibition, % at 25 µM; AID 434955; M. tuberculosis H37Rv growth with meropenem, percent inhibition; hits of this screen are not shown here;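 active = about 74% or more and at least 40 points above the plate without the antibiotic, then above 30% in a dose series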;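 note: growth measured after seven days incubation then overnight dye step; 0% = bacteria only wells and 100% = bacteria with antibiotic; twin plates without the antibiotic show which effects depend on it; some results filed as inactive read as strong as hits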
Mtb H37Rv = M. tuberculosis H37Rv growth inhibitors, H37Rv strain (AID 1626); M. tuberculosis H37Rv growth inhibition; higher % means a stronger effect; inhibition, % at 10 µM; hits with a dose series show IC50 in µM; hit rate 0.95% among 220,000;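 active = confirmed in a dose series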;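 note: bacteria incubated seven days before Alamar blue readout; 0% = bacteria only wells and 100% = bacteria with antibiotic wells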
RecA splice inh = Mtb RecA intein splicing inhibition; hit rate 0.75% among 290,000; AID 2221; P9WHJ3; inhibition, %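 (about 9 µM by stock and volumes)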; cell-free RecA intein splicing, fluorescence; in the data active = inhibition above about 30%;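 note: 0% = vehicle wells and 100% = reference inhibitor control wells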
Active calls of the source: *; . = no result given. The list is partial. The share of hits here may be higher or lower than overall.

Order of results – Mtb bLac sens | Arbovirus inh | Mtb H37Rv | RecA splice inh | YopH PTP inh
[1] CC(=O)c1cccc(N(C(=O)CNC(=O)c2ccco2)C(C(=O)NC2CCCC2)c2ccc(C)o2)c1 (centres undefined)
→ 0.2 | 3.9 | -2.7% | -1.1 | .
[2] COc1ccccc1CC(=O)Nc1ccc([N+](=O)[O-])cc1OC
→ -5.0 | -11.5 | 2.4% | -2.7 | -25.9
[3] CC(C)=CC/C=C1\CCC(C(=O)O)C(C(=O)O)C1 (centres undefined)
→ -3.2 | 5.5 | -14.4% | -2.2 | -39.6
[4] Cc1cccc(NS(=O)(=O)c2ccc(C(=O)NCC3(N4CCCCC4)CCCCC3)cc2)c1C
→ -4.0 | . | . | -0.8 | .
[5] O=C(N/N=C/c1cn(-c2ccccc2)nc1-c1cccs1)c1ccc(Cl)cc1
→ 95.3 | -11.1 | 69.4% | -1.9 | -30.1
[6] COc1ccc(C(CNC(=O)c2ccc(-c3ccccc3Cl)o2)N2CCOCC2)cc1 (centres undefined)
→ 18.9 | . | . | 8.2 | .
[7] CCOC(=O)c1ccc(-c2ccc(/C=C(\C#N)C(=O)NCc3cccs3)o2)cc1
→ 10.9 | -5.8 | 3.4% | . | -25.0
[8] COc1cccc(CNC(=O)C2CCCN(c3ncnc4c3nc3n4CCCCC3)C2)c1 (centres undefined)
→ -1.7 | . | . | 3.3 | .
[9] CCOCCSC1=C(C#N)C(c2cccs2)C(C(C)=O)=C(C)N1 (centres undefined)
→ -14.8 | 1.5 | -2.9% | -4.3 | -16.9
[10] CC1(C)CC(n2[nH]c(=O)c3c2NC(=O)CSC3c2ccccc2)CCO1 (centres undefined)
→ -2.1 | 7.5 | 21.2% | 3.8 | -24.4
[11] COC(=O)c1cccc(S(=O)(=O)N2CCCC2)c1
→ 5.3 | -1.1 | -1.1% | -2.5 | -18.7
[12] COCCN(Cc1nc(-c2ccc(C(F)(F)F)cc2)no1)C(C)C
→ -0.4 | 0.3 | -15.3% | -0.7 | .
[13] COc1ccccc1Oc1ccc(NC(=O)c2ccccc2)cc1
→ 0.1 | -5.9 | -4.2% | 0.7 | .
[14] COC(=O)c1[nH]nc2c1C(=O)N(Cc1ccccc1)C2=O
→ 8.4 | 3.2 | 1.1% | 1.7 | -42.8
[15] Cc1n[nH]c(C)c1Sc1ccccc1[N+](=O)[O-]
→ -4.7 | 19.1 | 1.0% | 2.9 | .
[16] Cc1ccc(C(=O)Nc2cc(C)nn2CCC#N)cc1
→ 4.9 | . | . | -1.9 | .
[17] COc1cc(OC)c(NC(=O)c2sc3ncn(CC(=O)N4CCOCC4)c(=O)c3c2C)cc1Cl
→ 1.7 | . | . | -0.7 | .
[18] N#Cc1cc([N+](=O)[O-])ccc1NC(=O)COC(=O)C12CC3CC(CC(C3)C1)C2
→ -4.7 | 23.4 | -1.4% | 15.7 | .
[19] O=C(COc1ccc(Cl)cc1)Nc1nc(-c2ccncc2)cs1
→ -0.6 | . | . | 0.4 | .
[20] Cc1ccc(N2C(=O)CSC2c2cccs2)cc1 (centres undefined)
→ 10.1 | 11.2 | -5.0% | 1.8 | -28.3
